Ba CapD inh: blocks the Bacillus anthracis CapD enzyme. purified CapD enzyme, fluorescence intensity read-out; stronger effect = lower value; some hits fall short of the stated cut. z-score (concentration not given with the values). 0.23% of 140,000 active. AID 492967;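 active = z-score under -4 in either of two replicates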;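 also: stock transfer was 100 nL into about 40 µL; score is relative to mean and spread of the plate; one replicate is shown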
AID504770: E. coli YBA685 growth inhibition, screen for V. cholerae RctB inhibitors; E. coli YBA685 rctB-dependent plasmid, OD600 growth, 3 h; stronger effect = lower value; z-score (test concentration not listed); 0.27% of 130,000 active; AID 504770;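 active = z-score under -2 on both plates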;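 also: wells of about 30 µL received 100 nL stock; score is relative to mean and SD of the test wells; the first replicate is given; strong numbers were not always called active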
* = called active by the depositor; i = inactive; nt = not tested or not shown; & = joins results of further samples. An excerpt (hit frequency here may not be typical).

canonical_smiles | AID504770 | Ba CapD inh
C=CCC1NC(C)(C)Cc2ccccc21 (configuration not stated) | -1 | -0.005
Cc1cc(-n2c(C)cc(C(=O)Cn3cc(S(=O)(=O)N(C)C)ccc3=O)c2C)no1 | -0.55 | nt
CC(C)C[C@H]1C(=O)N2CCC[C@H]2[C@]2(O)O[C@](NC(=O)[C@@H]3C=C4c5cccc6[nH]cc(c56)C[C@H]4N(C)C3)(C(C)C)C(=O)N12 | nt | 1.6
CCOc1ccc(NC(=O)CSC2=C(C#N)C(c3ccc(O)c(OCC)c3)CC(=O)N2)cc1 (configuration not stated) | nt | -0.88
CCCCn1nnnc1COC(=O)[C@@H](NS(=O)(=O)c1cccc(Cl)c1)C(C)C | 0.4 | nt
CCn1c(=O)c(=O)[nH]c2cc(C(=O)NC(C)c3ccc(S(N)(=O)=O)cc3)ccc21 (configuration not stated) | -0.8 | nt
O=C(Cc1ncc(C(F)(F)F)cc1Cl)NCCN1CCCCC1 | -0.55 | -0.26
COC(=O)C1=C(NC(C)=O)CCS1 | -0.5 | i
Cc1ccc(Nc2nc(N)nc(CC(=O)CSc3nc4ccccc4s3)n2)cc1 | -0.2 | 0.16
CS(=O)(=O)c1ccc2c(c1)CCN2C(=O)CCC(=O)NCCN1CCOCC1 | nt | -0.82
CN(CC(=O)Nc1ccccc1C(=O)NC1CC1)Cc1ccco1 | -0.55 | nt
NNC(=O)c1cc2cccc3c2n(c1=O)CCC3 | nt | 11
C=CCn1c(SCC(=O)c2ccccc2)nc2c(c1=O)C(C)(C)Cc1ccccc1-2 | 0.5 | 5.5
C=C1C2(C(=O)Nc3cc(C)on3)CCC(C2)C1(C)C (configuration not stated) | 0.8 | -0.46
CC(C)N(Cc1nnc(-c2ccccc2)o1)C(=O)c1ccccc1 | -0.75 | nt
CCOC(=O)c1c(-c2ccccc2)oc2c1cc(OC(=O)c1cccc([N+](=O)[O-])c1)c1ccccc12 | nt | 0.15
Cc1cc(C(=O)NCC(C)c2ccccc2)n[nH]1 (configuration not stated) | 0.5 | -0.84
O=C(CN1C(=O)/C(=C/c2ccccc2F)Sc2ccccc21)N1CCCC1 | 1.3 | -0.9
CCCc1c(C)c(C#N)c2[nH]c3ccccc3n2c1=O | -0.45 | nt
CC1=CC(=O)N(c2ccc(F)cc2)C1=O | nt | -0.04
CN(C)C(=O)CCc1nc(-c2ccc(C(C)(C)C)cc2)no1 | -0.4 | 0.51
COc1ccc(OC)c(N=Cc2cc(I)cc(C)c2O)c1 | -0.2 | 0.17
O=S(=O)(CCSc1ccc(C(F)(F)F)cn1)CCSc1ccc(C(F)(F)F)cn1 | -1.6 | -0.035
CC1(C)CC(=O)C(C(C2=C(O)CC(C)(C)CC2=O)c2ccc(O)cc2)C(=O)C1 (configuration not stated) | nt | -0.32
O=C(/C=C/c1ccc(Br)cc1)Nn1c(-c2ccc(F)cc2)nc2ccccc2c1=O | nt | -0.15
Cc1ccc(NC(=O)C(=O)NCCN2CCNCC2)cc1 | nt | 0.58
Cc1cc(OC(C)C(=O)N(Cc2ccccc2Cl)C2CCS(=O)(=O)C2)ccc1Cl (configuration not stated) | 1.1 | -0.38
CCn1c(=S)[nH]c2sc3c(c2c1=O)CCC3 | -0.75 | -0.84
CCC(=O)Nc1ccc(C(=O)N(CC)C2CCCCC2)cc1 | 0.2 | -0.59
O=C(NC(NCc1ccccc1Cl)(C(F)(F)F)C(F)(F)F)c1ccccc1 | 0.1 | -0.36
COCCNC(=O)C1CC(c2c(F)cccc2Cl)=NO1 (configuration not stated) | -0.85 | 0.41
CC(=O)NCc1cc2cc(Cl)ccc2n1C | -0.5 | nt
CCCn1c(N)c(C(=O)COC(=O)c2ccc(C)c(NC(=O)c3ccco3)c2)c(=O)[nH]c1=O | 0.15 | nt
O=c1nc(Nc2ccc(OC(F)(F)F)cc2)c2ccccc2o1 | -0.3 | 0.36
Cc1cc(=O)[nH]c(NNS(=O)(=O)c2ccc3ccccc3c2)n1 | 0.75 | nt
Cc1cc(C)c2c(=O)c(C#N)coc2c1 | -0.75 | 1
CCOC(=O)c1ccc(-c2coc3cc(O)c(CC)cc3c2=O)o1 | 0&1.4 | 1.5&-0.29
CCOC(=O)c1cnn2c1nc(Sc1ccc(C)cc1)c1ccccc12 | -0.85 | 1.7
CC(C)(C)c1cc2nc[nH]c(=O)c2s1 | 0.55 | 0.27
COc1ccc(NC(=O)C2(N(Cc3ccccc3)C(=O)Cc3nc(N)n[nH]3)CCCCC2)cc1 | 0.2 | 0.06
O=C(O)C1CCN(S(=O)(=O)c2cccc3nsnc23)CC1 | -0.15&-1.1 | -1.1
CC(C)C(NS(=O)(=O)c1cccs1)C(=O)NC1CCCCCC1 (configuration not stated) | 0.65 | -0.26
CCCNC(=O)CSc1nc2nc(C)c(Cc3ccccc3C)c(C)n2n1 | 0.7 | 0.61
CCC(C)(C)c1ccc(S(=O)(=O)N2CCC(NC(=O)OC(C)(C)C)C2)cc1 (configuration not stated) | nt | -0.27
O=C(Nc1ccccc1)Nc1sccc1OCc1ccc(Cl)cc1Cl | nt | 0.33
CCOCCOC(=O)C1=C(C)NC2=C(C(=O)CC(c3ccc(OC)cc3)C2)C1c1ccc(N(CC)CC)cc1 (configuration not stated) | nt | 0.15
CN(C)CCNc1oc(-c2ccc(Cl)cc2)nc1C#N | -0.6 | 62
COc1ccc(NC(=O)C(NC(=O)c2ccccc2NC(=O)c2ccco2)C(C)C)cc1 (configuration not stated) | -0.15 | nt
COc1cc(C2C(C(=O)N3CCCCC3)=C(C)NC3=C2C(=O)CCC3)cc(Br)c1O (configuration not stated) | nt | 11
O=C(COc1ccc(Cl)cc1Cl)Sc1nc2ccccc2o1 | -1.4 | nt
Cc1noc(NS(=O)(=O)c2ccc(NC(=O)NC(C)(C(F)(F)F)C(F)(F)F)cc2)c1C | -0.6 | 0.23
O=C(NCCOc1ccccc1)OCCCc1ccccc1 | nt | -0.035
Cc1ccc(Cn2nnc3c(=O)[nH]c(C4CCN(S(=O)(=O)/C=C/c5ccccc5)CC4)nc32)cc1 | 0.2 | nt
Nc1c(C(=O)N2CCOCC2)sc2nc(-c3cccs3)cc(C(F)(F)F)c12 | nt | 6.5
CCCc1nc2ccccc2n1CC(=O)N(CCC#N)c1ccccc1 | 0.1 | 1.1
CCOC(=O)c1ccc(/C=N/O)[n+](Cc2ccccc2)c1 | -0.8 | -1.1
Cc1cc(C)c2c(n1)sc1c(-c3ccccc3)onc12 | nt | 0.28
O=C(c1ccc2c(c1)OCO2)N1CCN(C/C=C/c2ccccc2)CC1 | nt | 0.29
Cc1ccc2nc(-c3ccc(NC(=S)NC(=O)Cc4ccccc4)cc3O)oc2c1 | 0.2 | 1.7
NC(=O)COC(=O)c1cccc(C(F)(F)F)c1 | -0.45 | nt

Grouped by structure: those above containing a furan ring, fused or not.
canonical_smiles | AID504770 | Ba CapD inh
CN(CC(=O)Nc1ccccc1C(=O)NC1CC1)Cc1ccco1 | -0.55 | nt
CCOC(=O)c1c(-c2ccccc2)oc2c1cc(OC(=O)c1cccc([N+](=O)[O-])c1)c1ccccc12 | nt | 0.15
CCCn1c(N)c(C(=O)COC(=O)c2ccc(C)c(NC(=O)c3ccco3)c2)c(=O)[nH]c1=O | 0.15 | nt
CCOC(=O)c1ccc(-c2coc3cc(O)c(CC)cc3c2=O)o1 | 0&1.4 | 1.5&-0.29
COc1ccc(NC(=O)C(NC(=O)c2ccccc2NC(=O)c2ccco2)C(C)C)cc1 (configuration not stated) | -0.15 | nt

Remaining list, next part:
canonical_smiles | AID504770 | Ba CapD inh
O=C(NC(=S)N1CCOCC1)c1ccccc1 | nt | 0.29
CC1CCC2(CC1)NC(=O)c1ccccc1N2C (configuration not stated) | -0.25 | nt
COC(=O)C1=C(N)OC2=C(C(=O)CC(c3ccccc3)C2)C1c1cccc(OC)c1OC (configuration not stated) | nt | -0.15
CCCCNc1nc(SCC(=O)Nc2ccc(OCC)cc2)nc2ccccc12 | nt | -0.25
COc1cc(NC(=O)c2c(-c3ccccc3)nnc3ccccc23)cc(OC)c1 | 0 | 0.06
COCC(C)Nc1nc(-c2ccc(Cl)cc2)cs1 (configuration not stated) | 0 | 1.4
O=C(Nc1ccc(F)cc1)NC1CCCCC1NC(=O)Nc1ccc(F)cc1 (configuration not stated) | 0.5 | nt
CC1CC(C)CN(c2cnnc3c(Cl)cccc23)C1 (configuration not stated) | -0.9 | -1.8
O=C1/C(=C/c2ccc(-c3cc(Cl)ccc3Cl)o2)C=C(c2ccccc2)N1c1ccc(Cl)cc1 | nt | 0.04
C(=N\n1cnnc1)/c1c[nH]c2ccccc12 | 0 | -1.2
CCC1(C)CC(CCNCc2ccc(OC)cc2)(c2ccc(F)cc2)CCO1 (configuration not stated) | nt | -1.2
O=C(CSc1nnc(COc2ccccc2)n1Cc1ccco1)Nc1ccc2c(c1)OCO2 | -0.25 | -0.32
C#CCOc1c(Cl)cc(/C=c2\sc3nc4cc(C)c(C)cc4n3c2=O)cc1OC | nt | -0.14
CC(C)c1ccccc1NC(=O)COc1ccc2ccc(=O)oc2c1 | 0.25 | 13
CC(=O)NCc1ccc(-c2csc(N)n2)o1 | 0.15 | nt
Cc1ccc(NC(=O)c2ccc(F)c(S(=O)(=O)N3CCCC3)c2)cc1F | 0.1 | 0.27
O=C(CSc1ccccc1)Nc1nccs1 | 0.3 | -0.64
COc1ccccc1NC(=O)NCCSCc1cc2cccc3c2n(c1=O)CCC3 | nt | 2.2
c1ccc(-c2nnsc2-c2ncc[nH]2)cc1 | 0.05 | nt
CC1CCN(C(=O)c2ccc(C(=O)N3CCC(C)CC3)cc2)CC1 | 2 | 0
CC12CCC3C(CCC4CCCCC43C)C1C/C(=C\c1ccc[nH]1)C2=O (configuration not stated) | 0.45 | -1.4
N#Cc1c(N)c2ccccn2c1C(=O)c1ccc(Br)cc1 | 1.4 | 0.47
O=C1CSC(c2cccnc2)N1CC1CC1 (configuration not stated) | -0.05 | 0.08
CC(=O)Nc1ccc(S(=O)(=O)NC2CCN(Cc3ccccc3)CC2)cc1 | 0.1 | -0.39
Cc1nc(N)nc(SCc2ccccc2Cl)c1Cl | 0.7 | -0.05
Cc1nc(NCc2ccc(F)cc2)nc2c1C(=O)c1ccccc1-2 | 1 | 0.48
CCOC(=O)C(C)Sc1nnc(NC(=O)c2c(F)cccc2Cl)s1 (configuration not stated) | -0.65 | -0.52
Cc1c(NC(=O)C(C)N2C(=O)C3CCCCC3C2=O)c(=O)n(-c2ccccc2)n1C (configuration not stated) | nt | 0.54
Cc1cc(C)c(C)c(S(=O)(=O)N2CCN(c3cc(C(F)(F)F)ccn3)CC2)c1C | nt | 33
Cn1cnc2cc(-c3n[nH]c(=O)c4ccccc34)ccc21 | -0.3 | 0.41
Cc1cc(C)cc(C(=O)NCC(=O)OCN2C(=O)c3ccccc3C2=O)c1 | -0.15 | nt
CNC(=S)N1CCN(c2cccc(C)c2C)CC1 | -0.1 | nt
CCC(=O)Nc1nnc(SCC(=O)Nc2ccc3c(c2)OCO3)s1 | -1.5 | nt
CCOC(=O)c1sc(NC(=O)c2cc(=O)c3ccccc3o2)c(C(=O)OCC)c1C | nt | -0.02
O=C1NCCN2CCCC12 (configuration not stated) | 0.55 | -0.04
CCOc1ccc(Br)cc1C1C(C#N)=C(N)Oc2c1c(=O)oc1ccccc21 (configuration not stated) | nt | 0.07
O=S(=O)(ON=C1CCN(S(=O)(=O)c2ccccc2)CC1)c1ccccc1 | nt | 0.28
O=C(Cn1ncn2nc(-c3ccccc3)cc2c1=O)N1CCCC1 | -0.1 | 0.84
CC(C(=O)Nc1ccc(C(N)=O)cc1)N1CCC(c2nc3ccccc3o2)CC1 (configuration not stated) | -1.3 | nt
CCCn1ccc2c(OCC(=O)Nc3ccc(NC(C)=O)cc3)cccc2c1=O | -0.75 | nt
CCOC(=O)C1=C(O)c2ccccc2NC(=O)C1 | 0.2 | 0.85
C=Cc1c(S(C)(=O)=O)sc(C(=O)Oc2ccccc2)c1C | -1.1 | 0.65
O=C(/C=C/c1ccco1)OCC(=O)N1CCC(Cc2ccccc2)CC1 | -0.1 | 0.73
CCN(CC)C(=O)CSc1n[nH]c(-c2cccs2)n1 | -0.85 | nt
O=C(Nc1cccc(OC(=O)c2cccnc2)c1)c1cccnc1 | -0.15 | 0.08
N#Cc1c(=O)c2ccccc2n2c1[nH]c1ccccc12 | nt | 63
CN(C)c1ccc(C(O)C(=O)c2cccs2)cc1 (configuration not stated) | -1.4 | -0.68
CCNc1ccc(Br)cc1-c1nc2ccccc2n(CC)c1=O | nt | -0.005
COC(=O)c1ccc(NC(=O)C2CC(=O)N(Cc3ccc(OC)cc3)C(=Nc3ccccc3)S2)cc1 (configuration not stated) | nt | 0.17
CCc1ccccc1NC(=O)C(C)(C)CC | 0.25 | 0.23
Cc1cc(CNCCCN2CCCCC2C)c(C)n1-c1ccnn1C(C)C (configuration not stated) | -0.35 | nt
CCc1ccc(N2C(=O)NC(=O)/C(=C\c3ccc(OCC(=O)O)c(OC)c3)C2=O)cc1 | nt | 0.93
CC(C)Cc1nn(-c2ccccc2)cc1/C=C1\Cc2ccccc2C1=O | -0.15 | 0.53
COc1ccc(NC(=O)Cc2nc(-c3cccc(C(F)(F)F)c3)no2)cc1 | nt | -0.38
Cc1nc(-c2ccc(OCC(=O)O)cc2)cs1 | 0.9 | nt
CN(C(=O)c1cc2sccc2nc1C(F)(F)F)c1ccc(Cl)cc1 | nt | -0.2
Cc1cc(C)c2c(-n3cccc3)c(C(=O)NC(C)C)sc2n1 | -0.15 | 0.43
N=c1n(CC(=O)O)c2ccccc2n1Cc1ccccc1 | -0.2 | nt
CN(C1CCN2CCc3ccccc3C2C1)S(C)(=O)=O (configuration not stated) | 0.8 | -0.59
CCCCNC(=O)Oc1ccc(-c2csnn2)cc1 | 0.5 | -0.54
S=C(Nc1ccccc1)c1ccccc1 | -0.3 | -1.5
